rRNA inh HTS: inhibits bacterial ribosomal RNA function over humanized ribosomes. E. coli WT GFP vs humanized-ribosome RFP mutants, fluorescence, 24 h; hits give low values; DMSO median 0, no signal -100. GFP signal change (wild-type ribosome), % (no concentration beside the values). actives 1.6% (n = 350,000);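 active = significant combined selectivity score with lowered wild-type GFP, culture density cut under 30%, mutant RFP and density less affected; inactive = any of these conditions unmet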; also: one replicate is shown; some compounds called inactive have numbers as strong as hits
rRNA inh HTS OD600: second read-out of rRNA inh HTS, no call of its own (marks repeat the call); OD600 change, %; measured here: OD600 growth;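 optical density of the mix in the first replicate; 0 = DMSO median and -100 = no signal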
rRNA inh HTS RFP: recorded beside rRNA inh HTS, whose call it bears; RFP signal change, %; measured here: RFP humanized mutant strains;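 first replicate; 0 = DMSO median and -100 = no signal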
An asterisk follows results filed as active; & = joins results of further samples. An excerpt; count on the stated rates, not on these rows.

SMILES	rRNA inh HTS	rRNA inh HTS OD600	rRNA inh HTS RFP
CCCNC(=O)N(C)C[C@H]1Oc2cc(-c3ccccc3F)ccc2S(=O)(=O)N([C@H](C)CO)C[C@@H]1C	-4.0	-11.1	-0.8
Cc1ccn2c(Cc3ccccc3)c(-c3ccccc3)nc2c1	-28.4	-43.4	-10.1
C[C@@H]1CN([C@@H](C)CO)C(=O)c2cc(NC(=O)Nc3ccccc3)ccc2O[C@@H](C)CCCCO[C@@H]1CN(C)C	1.1	-1.8	-1.3
O=C(NCc1ccc(F)cc1)c1cc(C2CCCN(C(=O)c3ccccn3)C2)on1 (stereo unspecified)	4.0	14.5	0.0
COCC(=O)N(C)C[C@@H]1Oc2cc(C#CC3CC3)ccc2S(=O)(=O)N([C@@H](C)CO)C[C@H]1C	-22.6	-43.9	-8.5
Cc1nc(C(F)(F)F)ccc1C(=O)N1CCC1(C)C(=O)NS(=O)(=O)c1cccc(F)c1 (stereo unspecified)	5.0	17.9	-1.3
CCCNC(=O)C[C@@H]1CC[C@H]2[C@@H](COC[C@H](O)CN2C(=O)C2CCOCC2)O1	0.1	-2.5	29.8
CCCNC(=O)C[C@@H]1CC[C@H]2[C@H](COc3ccc(NC(=O)c4ccc(Cl)cc4)cc3C(=O)N2C)O1	-9.9	-13.7	-1.0
C[C@@H]1CN([C@H](C)CO)C(=O)c2cccc(NC(=O)C3CCOCC3)c2O[C@H]1CN(C)C(=O)Nc1cccc2ccccc12	-2.4	0.6	1.2
C[C@@H]1CN([C@H](C)CO)C(=O)c2cc(NC(=O)CCCN(C)C)ccc2O[C@@H]1CN(C)C(=O)Nc1ccc2c(c1)OCO2	-1.3	3.9	-1.8
O=C(N[C@@H]1CC[C@H](CCNS(=O)(=O)Cc2ccccc2)O[C@@H]1CO)c1ccccc1F	6.0	4.3	4.3
C[C@H](CO)N1C[C@H](C)[C@H](CN(C)C(=O)Nc2ccc3c(c2)OCO3)Oc2ccc(NC(=O)CCCN(C)C)cc2C1=O	1.8	-2.4	-0.6
C[C@@H]1CN([C@@H](C)CO)C(=O)c2cc(NS(=O)(=O)c3cn(C)cn3)ccc2O[C@H]1CN(C)Cc1ccc(-c2ccccc2)cc1	-4.0	-4.1	1.5
C[C@@H]1COc2cccc(NC3CC3)c2S(=O)(=O)N1	12.4	9.8	1.8
Cn1cc(-c2csc(C(C)(O)c3cccc(F)c3)n2)cn1 (stereo unspecified)	0.5	15.1	-1.8
Cc1noc(C)c1C(=O)N1CCC1(C)C(=O)NS(=O)(=O)c1ccc(Br)cc1 (stereo unspecified)	4.0	12.0	-14.0
O=C(C[C@H]1CC[C@@H]2[C@H](COC[C@@H](O)CN2C(=O)c2cnccn2)O1)NCc1ccc(F)cc1	2.4	12.3	-0.8
COc1ccc2c3c([nH]c2c1)[C@H](CO)N(C(=O)Nc1ccc(F)cc1)CC31CN(S(C)(=O)=O)C1	-5.1	-4.2	0.0
COCC(=O)Nc1ccc2c(c1)C(=O)N(C)C[C@@H](OC)[C@@H](C)CN(Cc1cccc(F)c1)[C@@H](C)CO2	2.1	6.4	-4.2
Cc1ccc(S(=O)(=O)N2C(c3cccc(Cl)c3)CC=C(C(=O)O)C2c2cccc(Cl)c2)cc1 (stereo unspecified)	-23.9	-45.0	-0.9
COc1ccc(-c2cnc3c(c2)C(=O)N([C@H](C)CO)C[C@H](C)[C@H](CN(C)S(=O)(=O)c2ccc(C)cc2)O3)cc1	-2.1	-2.4	-4.6
C[C@H]1CN([C@@H](C)CO)C(=O)c2cc(NC(=O)C3CCCCC3)ccc2O[C@@H]1CN(C)Cc1ccc(C(F)(F)F)cc1	-4.7	-5.8	1.4
O=C1Cc2cccc(=O)c(O)c2C(=O)O1	-1.2	12.4	-0.8
C[C@@H]1CN([C@@H](C)CO)C(=O)CCCn2nncc2CO[C@H]1CN(C)Cc1cccc(C(F)(F)F)c1	-5.0&-8.4	-3.2&-4.3	-12.1&1.1
C[C@@H](c1ccccc1)N1C[C@H](COCc2ccccc2)Oc2cc(N3CC[C@@H](O)C3)ccc2S1(=O)=O	5.6	-12.3	-7.6
Further records:
SMILES	rRNA inh HTS	rRNA inh HTS OD600	rRNA inh HTS RFP
CCCNC(=O)N1[C@H](CO)[C@H](c2ccc(C3=CCCC3)cc2)[C@@H]1CNC(C)=O	2.5	-7.6	0.5
Cc1ccc(F)cc1NC(=O)COC(=O)C1CC2CCCC(C1)C2=O (stereo unspecified)	15.5	5.2	-0.5
CC(C)NC(=O)Nc1ccc2c(c1)C(=O)N([C@H](C)CO)C[C@H](C)[C@H](CN(C)C(=O)c1ccncc1)OCCCC[C@H](C)O2	-1.1	3.6	-2.7
COCC(=O)Nc1ccc2c(c1)[C@@H]1C[C@@H](CC(=O)NCC3CC3)O[C@@H](CO)[C@@H]1O2	0.0	-2.7	2.1
COCC(=O)Nc1ccc2c(c1)C(=O)N(C)[C@@H]1CC[C@H](CC(=O)NCc3ccccc3Cl)O[C@H]1CO2	2.0	-1.6	-0.6
Cc1nnc(NCC=Cc2ccccc2)s1	4.3	4.2	4.5
C=CCC12C[C@@]3(O[C@H](c4ccc(C(F)(F)F)cc4)N=C3C[C@H](c3ccc(OC)cc3)[C@H]1C)N(Cc1ccc3c(c1)OCO3)C2=O	8.9	16.6	-1.7
C/C=C/c1ccc([C@H]2[C@@H](CO)N(CC3CCOCC3)C23CN(C(=O)COC)C3)cc1	9.8	7.3	-1.9
Cc1ccc(-c2ccc3c(c2)O[C@H](CN(C)C(=O)C2CCCCC2)[C@@H](C)CN([C@H](C)CO)S3(=O)=O)cc1	-3.9	3.1	-4.1
COc1cccc(C(C)(O)c2nc(-c3ccc(OC)nc3)cs2)c1 (stereo unspecified)	-8.1	-20.0	-3.9
C[C@@H]1CCn2cc(nn2)COC[C@@H](c2ccccc2)NC1=O	1.1	3.9	-1.5
COc1ccc([C@H]2C/C=C\C[C@H](c3ccc(F)cc3)NC(=O)CCC(=O)N2)c(OC)c1	3.6	8.6	1.1
COc1ccc(NC(=O)N2C[C@H](O)COC[C@@H]3O[C@@H](CC(=O)N4CCOCC4)CC[C@H]32)cc1	0.2	-1.7	-2.6
CCCC#Cc1ccc([C@H]2[C@H](CO)N3C(=O)CN(C(=O)c4ccccc4)C[C@@H]23)cc1	3.2	-4.4	-5.5
C[C@H](CO)N1C[C@H](C)[C@@H](CN(C)Cc2ccc(C(F)(F)F)cc2)Oc2ccc(NC(=O)CCCCCC(=O)Nc3ccccc3N)cc2CC1=O	-7.7	-15.0	19.3
Cc1ccc(S(=O)(=O)Nc2ccc3c(c2)C(=O)N([C@H](C)CO)C[C@H](C)[C@H](CN(C)Cc2ccccc2)O3)cc1	0.6	3.7	-3.1
O=C(Nc1ccccc1)c1cc(C2COCCN2C(=O)CCCc2ccccc2)on1 (stereo unspecified)	-2.5	-6.8	2.1
O=C(C[C@@H]1C=C[C@@H](NC(=O)Cc2ccccn2)[C@H](CO)O1)NCCCN1CCOCC1	2.0	0.7	1.8
COCC#Cc1ccc([C@@H]2[C@H]3CN(C(=O)C4CCOCC4)CC(=O)N3[C@H]2CO)cc1	5.6	6.1	-2.0
CC1(C(=O)Nc2ccc3c(c2)OCCO3)CSCC(=O)N1C1CC1 (stereo unspecified)	12.1	14.2	-0.4
C[C@H]1CN([C@@H](C)CO)S(=O)(=O)c2ccc(-c3cccnc3)cc2O[C@H]1CN(C)C(=O)NC1CCCCC1	-1.6	3.9	-1.8
COC(=O)C[C@@H]1OC[C@H](CO)N1S(=O)(=O)c1ccc(C)cc1	6.0	8.6	0.8
CO[C@@H](CN(C)S(=O)(=O)c1ccc(C)cc1)[C@H](C)CN(C(=O)Nc1ccccc1F)[C@@H](C)CO	-0.9	0.4	2.2
C[C@@H]1CN([C@H](C)CO)C(=O)CCCn2nncc2CO[C@H]1CN(C)S(=O)(=O)c1ccc(F)cc1	-0.7	1.1	-0.6
C[C@@H]1CCCCO[C@@H](CN(C)C(=O)Nc2ccc(C(F)(F)F)cc2)[C@H](C)CN([C@@H](C)CO)C(=O)c2cc(NC(=O)Nc3ccc(F)cc3)ccc2O1	2.4	14.8	0.7

Part of the list above in order of molecular weight, lowest first:
SMILES	rRNA inh HTS	rRNA inh HTS OD600	rRNA inh HTS RFP
Cc1ccc(F)cc1NC(=O)COC(=O)C1CC2CCCC(C1)C2=O (stereo unspecified)	15.5	5.2	-0.5
COc1ccc([C@H]2C/C=C\C[C@H](c3ccc(F)cc3)NC(=O)CCC(=O)N2)c(OC)c1	3.6	8.6	1.1
O=C(C[C@@H]1C=C[C@@H](NC(=O)Cc2ccccn2)[C@H](CO)O1)NCCCN1CCOCC1	2.0	0.7	1.8
C=CCC12C[C@@]3(O[C@H](c4ccc(C(F)(F)F)cc4)N=C3C[C@H](c3ccc(OC)cc3)[C@H]1C)N(Cc1ccc3c(c1)OCO3)C2=O	8.9	16.6	-1.7

Following part.
SMILES	rRNA inh HTS	rRNA inh HTS OD600	rRNA inh HTS RFP
Cc1ccc(S(=O)(=O)Nc2ccc3c(c2)C(=O)N([C@@H](C)CO)C[C@H](C)[C@H](CN(C)C(=O)CCCN(C)C)OCCCC[C@H](C)O3)cc1	-0.5	-2.7	-0.1
O=C(NC1CCCCC1)N[C@@H]1CC[C@H](CCNS(=O)(=O)c2ccccc2)O[C@@H]1CO	-3.8	6.1	-0.3
O=C(C[C@@H]1CC[C@@H](NC(=O)Nc2cc(F)ccc2F)[C@@H](CO)O1)NCc1ccc2c(c1)OCO2	-2.4	-3.1	-1.8
N#C[C@H]1[C@H](c2ccc(-c3cccnc3)cc2)[C@H](CO)N1C(=O)Nc1ccc(F)cc1	-1.0	9.9	-1.0
C[C@@H]1CN([C@H](C)CO)C(=O)c2cc(N(C)C)ccc2O[C@H]1CN(C)C(=O)Nc1cccc2ccccc12	3.5	10.6	0.6
O=C(C1CCCCC1)N1CC2(C1)[C@@H](c1ccccc1)[C@@H](CO)N2C(=O)NC1CCCC1	-3.5	-17.8	4.6
COCC#Cc1cnc2c(c1)C(=O)N([C@@H](C)CO)C[C@@H](C)[C@@H](CN(C)C(=O)c1cccc(F)c1)O2	0.4	6.4	-1.5
CCC(=O)N[C@@H]1C=C[C@H](CC(=O)NCc2cc(F)cc(F)c2)O[C@H]1CO	-1.1	-0.5	-0.9
COC(=O)C[C@@H]1C[C@H]2c3cc(NC(=O)c4ccc5c(c4)OCO5)ccc3O[C@H]2[C@H](CO)O1	-4.5	-2.6	2.4
O=C(C1CCC1)N1CC(=O)N2[C@H](CO)[C@@H](c3ccc(-c4ccccc4F)cc3)[C@@H]2C1	7.5	-25.4	2.9
C[C@H](CO)N1C[C@H](C)[C@H](CN(C)C(=O)CN(C)C)Oc2cc(C3=CCCCC3)ccc2S1(=O)=O	1.9	5.1	-0.5
C/C=C/c1cccc(-c2nc(C(=O)N3CCOCC3)cc3c2[C@H](CCO)N(C(=O)NC(C)C)C3)c1	14.6	5.2	5.2
CCCNC(=O)Nc1ccc2c(c1)OC[C@H](C)N(Cc1ccccc1)C[C@@H](C)[C@@H](OC)CN(C)C2=O	-2.6	-15.3	-1.0
Nc1ccn([C@@H]2O[C@H](C(=O)N[C@H](Cc3ccccc3)C(=O)N3CCN(C(=O)N4CCCCC4)CC3)[C@@H](O)[C@H]2O)c(=O)n1	3.8	7.8	1.2
Cc1ccc(-c2ccc([C@@H]3[C@H](CO)N4CCCCN(C(=O)Nc5ccccc5)C[C@@H]34)cc2)cc1	-59.8	-74.7	-16.1
C[C@H](CO)N1C[C@H](C)[C@@H](CN(C)Cc2ccccc2C(=O)O)Oc2ncc(C3=CCCCC3)cc2C1=O	0.6	2.8	-2.0
C[C@@H]1CN([C@@H](C)CO)C(=O)Cc2cc(NC(=O)c3ccncc3)ccc2O[C@H]1CN(C)Cc1ccc(C(F)(F)F)cc1	-9.0	-45.9	5.6
CN(C)C(=O)c1ccc(-c2ccc3c(c2)[C@H]2[C@H](CCN2C(=O)C2CCCC2)[C@@H](CO)N3C)cc1	-15.9	-59.3	14.4
COc1ccc(S(=O)(=O)Nc2ccc3c(c2)CC(=O)N([C@H](C)CO)C[C@H](C)[C@H](CN(C)S(=O)(=O)c2ccccc2)O3)cc1	-0.9	4.1	-0.5
C[C@H](CO)N1C[C@H](C)[C@H](CN(C)CC2CC2)OCc2cn(nn2)CCCC1=O	3.0	10.4	-1.4
CNc1ccc(-c2cc(OC)ccc2OC)cn1	0.6	-14.8	12.0
O=C(OCc1cn([C@H]2C[C@H](c3ccc(Cl)cc3)N(Cc3cccs3)C[C@@H]2O)nn1)c1ccccc1	-5.0*	5.7*	3.6*
CO[C@@H]1CN(C)C(=O)c2cc(NC(=O)Nc3ccccc3)ccc2OC[C@@H](C)N(CC2CC2)C[C@H]1C	-0.4	-5.0	0.7
COc1ccc(NC(=O)N(C)C[C@H]2OCCCC[C@H](C)Oc3ccc(NC(=O)CCC(F)(F)F)cc3C(=O)N([C@H](C)CO)C[C@@H]2C)cc1	-0.4	-4.4	0.8
COc1ccc(NC(=O)Nc2ccc3c(c2)CC(=O)N([C@@H](C)CO)C[C@@H](C)[C@@H](CN(C)C(=O)Nc2ccc4c(c2)OCO4)O3)cc1	1.8	6.0	0.2
C[C@H](CO)N1C[C@H](C)[C@@H](CN(C)S(=O)(=O)c2ccc(C#N)cc2)OCc2cn(nn2)CCCC1=O	15.2&-1.8	16.1&-2.2	1.2&-2.7
CCCNC(=O)c1cc(C2CCCCN2C(=O)c2cc(F)ccc2C)on1 (stereo unspecified)	3.7	8.0	-0.7
O=C(N[C@H]1CC[C@@H](CC(=O)N2CCCCC2)O[C@@H]1CO)c1cccc(F)c1	2.9	-1.9	0.9

A section from further up, for reference:
SMILES	rRNA inh HTS	rRNA inh HTS OD600	rRNA inh HTS RFP
C[C@@H]1CN([C@@H](C)CO)C(=O)CCCn2nncc2CO[C@H]1CN(C)Cc1cccc(C(F)(F)F)c1	-5.0&-8.4	-3.2&-4.3	-12.1&1.1
C[C@@H](c1ccccc1)N1C[C@H](COCc2ccccc2)Oc2cc(N3CC[C@@H](O)C3)ccc2S1(=O)=O	5.6	-12.3	-7.6

Compound activity: PubChem, Broad Institute
